HSD17B inhib: blocks hydroxysteroid 17-beta dehydrogenase activity | AID 893 | Q99714 | recombinant HSD17B10, NADH fluorescence kinetic; many of its hits are not listed in these tables | Potency, µM (series often up to 57.1 µM), for inactives: top-dose activity change, negative = inhibition, actives largely listed as inhibitors | 75,000 tested, 7.6% active; active means well fitted inhibition curve with a large enough effect; inconclusive means small, poorly fitted or top-dose-only effect; inactive means no such curve, though single readings can be large or run the other way;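 further: the protocol describes HADH2 (HSD17B10) and not the HSD17B4 of the title; nearly all actives have a fitted effect of over 70% in size; most hits overshoot -100% by far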
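Enzyme plus compound, 15 min room temperature; substrate mix added (NAD+ 1 mM, beta-hydroxybutyryl-CoA 90 uM final); plates read kinetically for NADH fluorescence. HADH2 was His-tagged, E. coli-derived, 20 nM.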
Numbers without * were called inactive; ? = inconclusive; & = joins results of further samples; [ ] = dose if it differs, or a comment. On the % scale 0 is the no-effect control and ±100 the full control effect; potency means the concentration at half of the fitted maximal effect. The list is partial. The share of hits here may be higher or lower than overall.

SMILES | HSD17B inhib
COc1ccccc1N(CC(=O)N1CCCCCC1)S(C)(=O)=O | 10%
Cc1cc(O)c(NC(=O)c2ccco2)cc1C | 6%
COc1cc(=O)n(C)c2cc(N(C)C)ccc12 | 32µM*
CCOC(=O)c1cnn(CCOC(=O)C2CC2)c1NC(=O)C1CC1 | 8%
O=C(Nc1nc2ccccc2n1CCN1CCCC1)C1CCCCC1 | 4%
Cc1ccc(NC(=O)N(Cc2ccco2)C(C)c2ccco2)cc1C (stereo not drawn) | -4%
O=C(O)COc1ccc2c(c1)CCCC2 | 0%
CS(=O)(=O)N(CC(=O)N1CCN(Cc2ccc3c(c2)OCO3)CC1)c1ccc2c(c1)OCO2 | 12%
C=CCNc1nc(C2(C)CC3(CC(C)OC3=O)C(=O)O2)cs1 (stereo not drawn) | -3%
O=C(CSc1nnc(-c2ccccc2)o1)c1nnc(-c2ccccc2)o1 | 25µM*
COC(=O)c1cccc(NC(=O)CN2CCN(Cc3ccccc3)CC2)c1 | 4%
O=C(CN(C1CCCCC1)S(=O)(=O)c1ccc(F)cc1)NC1CC1 | 1%
NC(=O)CS(=O)(=O)c1nc2ccccc2n1Cc1ccccc1F | 3%
Cc1sc2nc(C3CC3)nc(NCCNS(C)(=O)=O)c2c1C | -19%
COc1ccc(NC(=O)c2cc(-c3cc(C)cc(C)c3O)n[nH]2)cc1Cl | -2%
NCCCCNCCCN | 0%&6%&-5%
Cc1ccc(S(=O)(=O)NCCN=C(CN2CCCC2)NS(=O)(=O)c2ccc(C)cc2)cc1 | ?
O=C(Cc1c(O)c2ccccc2[nH]c1=O)NC1CCCCCCC1 | ?
COc1cc(C2N(c3ccccn3)C(=O)C3CCCN32)cc(OC)c1OC (stereo not drawn) | -4%
COCC(=O)O[C@]1(CCN(C)CCCc2nc3ccccc3[nH]2)CCc2cc(F)ccc2[C@@H]1C(C)C | -7%
COc1ccc2c(c1OC)C(=O)N(c1ccccn1)C2 | 25µM*
Cc1ccc(NC(=O)C2(N(C(=O)Cn3nnnc3N)c3ccc(C)cc3)CCCCC2)cc1 | 1%
Cn1c(COc2ccc3ccccc3c2)nnc1SCC(N)=O | 8%
COc1ccc(-n2c(=O)c(-c3cccc(Cl)c3)nc3cncnc32)cc1 | -1%
c1ccc(N2CCCCC2)c(NC2=NCCC2)c1 | 13%
NS(=O)(=O)c1ccc(CNC(=O)NC23CC4CC(CC(C4)C2)C3)cc1 | 0%
Cn1c(C(=O)N2CCCC(C(=O)N3CCN(C(=O)c4ccco4)CC3)C2)cc2sccc21 (stereo not drawn) | 3%
CCOC(=O)c1c(C)c(C(=O)NC(C)COC)c(C)n1CC (stereo not drawn) | 4%
Cc1ccoc1C(=O)NCc1occc1C(=O)O | -13%
CCCS(=O)(=O)N1CCCC(C(=O)NCCN(CC)CC)C1 (stereo not drawn) | 10%
CCOc1ccc(N2C(=O)c3cccnc3C2Nc2ccc(C)cc2)cc1 (stereo not drawn) | -8%
O=C(Nc1cccc(Cl)c1)c1ccncc1 | -4%
COc1ccc(OCC2CNC(=O)O2)cc1 (stereo not drawn) | 7%
COc1ccc2sc(NC(=O)c3ccco3)nc2c1 | -12%
CCOC(=O)CNC(=O)c1nn(-c2ccc(OCC)cc2)c(=O)c2ccccc12 | -5%
O=C(CCn1c(=O)oc2ccccc21)N1CCCCCC1 | 3%
O=C(CCn1c(=O)oc2ccccc21)NCCCN1CCN(c2ccc(F)cc2)CC1 | -1%
CCn1c(SCc2nc3ccccc3[nH]2)nnc1-c1cccs1 | 7%
COc1ccc(NC(=O)CC2CCCCC2)cc1OC | 8%
COCCNc1nnc(SCC(=O)N2CCN(S(=O)(=O)c3ccccc3)CC2)s1 | -7%
Cc1cc(C)cc(N2CC(c3nc4ccccc4n3C)CC2=O)c1 (stereo not drawn) | -2%
COCCn1c(SCc2cccnc2)nnc1-c1ccco1 | 5%
COc1ccc(-c2cc(C(=O)O)c3ccccc3n2)c(OC)c1 | -4%
Nc1nc2n(n1)C(c1cccc(Cl)c1)CC(c1ccc(F)cc1)N2 (stereo not drawn) | 4%
COc1ccc2ccccc2c1C1CC(=O)N2CN(C)CSC2=C1C#N (stereo not drawn) | 13µM*
O=C1CC(c2ccccc2)CC(O)=C1C=NCc1ccco1 (stereo not drawn) | -6%
CC(NC(=O)c1ccc2c(c1)OCO2)C(c1cccs1)N1CCOCC1 (stereo not drawn) | -1%
O=c1c2[nH]c3ccc(F)cc3c2ncn1CCN1CCOCC1 | ?
Cc1n[nH]c(=O)nc1NCc1ccco1 | 0%
COC(=O)c1ccccc1NC(=O)CN1CCC(n2nnc3cc(F)ccc32)CC1 | -11%

The list continues:
SMILES | HSD17B inhib
Cc1cc2c(nn1)CCC/C2=N\O | 7%
COc1ccccc1COCC(O)CNCC1(N2CCCCC2)CCCCC1 (stereo not drawn) | 11%
COc1ccc(NC(=O)c2cc(S(=O)(=O)N3CCCCC3)ccc2N2CCCCC2)cn1 | -20%
CCC(c1nnnn1Cc1cccs1)N1CCN(C2CCCC2)CC1 (stereo not drawn) | 4%
COc1ccc(CN2C(=O)CCC2(C)C(=O)NC2CCCCCC2)cc1 (stereo not drawn) | 4%
O=C(CC1Sc2ccccc2NC1=O)OCC(=O)N1CCc2ccccc21 (stereo not drawn) | -6%
COC(=O)C1=C(C)N(C)C(C)=C(C(=O)OC)C1c1cccc(Br)c1 | -6%
Cc1ccc(F)cc1NC(=O)c1ccc2c(c1)OCO2 | 6%
COc1cccc(C2CC(c3ccc(Cl)cc3Cl)Nc3nc(N)nn32)c1 (stereo not drawn) | 4%
COC(=O)c1ccccc1NC(=O)Cn1cc2c(n1)CCC(C)C2 (stereo not drawn) | 1%
CCOC(=O)C1CCCN(Cc2nc(N)nc(Nc3ccccc3)n2)C1 (stereo not drawn) | 0%
Cn1c(=O)[nH]c(=O)c2c1nc(N1CCc3ccccc3C1)n2CCSc1nc2ccccc2s1 | 4%
CCCOc1nc2c(c(=O)n(C)c(=O)n2C)n1CC | 2%
CN1CCN(c2nc3cc(C(F)(F)F)ccc3n3cccc23)CC1 | ?
OCCOCCOCCn1c2ccccc2c2ccccc21 | -5%
O=C(c1cccc(F)c1)N1CCC2(CCCN(Cc3ccccc3)C2)CC1 | 6%
C[C@@H]1CCC2[C@@H](C)[C@@H](O)O[C@@H]3O[C@@]4(C)CC[C@@H]1[C@@]23OO4 (stereo partly drawn) | 0%
CCOC(=O)c1c(N)sc(C(=O)N2CCCCCC2)c1C | -22%
COCCCNC(=O)CCSc1ccc(Cl)cc1 | 3%
CCCCn1cnc2c1c(=O)n(CC(=O)c1cc(C)n(C)c1C)c(=O)n2CC(C)C | 10%
Cc1ccc(S(=O)(=O)N2C(=O)CCC2C(=O)Nc2ccc3c(c2)OCCO3)cc1 (stereo not drawn) | 7%
CN(C1CCS(=O)(=O)C1)S(=O)C12CC3CC(CC(C3)C1)C2 (stereo not drawn) | 1%
Nc1ccc(C(=O)NCC(=O)O)cc1 | -8%
N=c1sccn1CC(=O)NCCc1ccc(Cl)cc1 | 7%
Cc1[nH]c2ccc(C(=O)OCCN(C)C)cc2c1C | -5%
COC(=O)c1cc(NC2c3ncccc3C(=O)N2Cc2ccccc2)cc(C(=O)OC)c1 (stereo not drawn) | -12%
COc1ccc(C2C(C#N)=C(N)Oc3cc(C)n(Cc4ccncc4)c(=O)c32)cc1 (stereo not drawn) | 1%
Cc1ccc(NC(=O)COC(=O)c2ccc3c(c2)NC(=O)C2CCCN32)cc1C (stereo not drawn) | ?
CC1CCN(S(=O)(=O)c2cccc(C(=O)N(C)C3CCS(=O)(=O)C3)c2)CC1 (stereo not drawn) | 9%
CSc1nc2c(c(=O)n1-c1ccc(F)cc1)SCC2 | ?
COC(=O)CC[C@@H](C)[C@@H]1CC[C@@H]2[C@@H]3CC[C@H]4C[C@@H](O)CC[C@@]4(C)[C@@H]3CC[C@]21C | -1%[11.4 µM]
O=C(NCCc1ccccc1)C(c1cccs1)N(C(=O)c1csnn1)C1CC1 (stereo not drawn) | -3%
CCC1Oc2ccccc2N(CC(=O)NCCCN2CCCCC2CC)C1=O (stereo not drawn) | 4%
Cc1ccccc1-c1nnc(-c2ccccc2)o1 | -17%
CC(=O)N(C(C)=O)c1ncc2c([nH]c3ccccc32)c1C#N | 134%[activator]
O=C(COC(=O)c1cc(S(=O)(=O)N2CCCCC2)ccc1N1CCOCC1)NC1CCCCC1 | 0%
CCOC(=O)c1[nH]nc(N)c1NC(=O)c1ccc(Cl)cc1Cl | -12%
COc1ccc(S(=O)(=O)NC(C(C)C)C(C)C)cc1OC | 12%
CS(=O)(=O)c1ccc2nc(NC(=O)CC3CCCC3)sc2c1 | 7%
CCOC(=O)CN(C(=O)CSc1nnc2c(n1)[nH]c1ccc(OC)cc12)c1ccc(F)cc1 | -7%
CC1CC[C@@]2(C(=O)O)CCC3(C)C(=CCC4[C@]5(C)CC(O)C(O)[C@](C)(CO)C5C(O)C[C@@]43C)C2C1C (stereo partly drawn) | 3%
CC1=C(C)C(=O)N(CCC(=O)O)C1=O | 12%
Cn1c(=O)c2c(nc(CN3CCOCC3)n2CC(O)CO)n(C)c1=O (stereo not drawn) | 6%
O=C(Cn1nnc(-c2ccc(Cl)cc2)n1)NCCC1=CCCCC1 | 5%
CCC(=O)c1cc2c(cc1NC(=O)c1ccc(C)cc1)OCCO2 | -2%
CCCCP(=O)(CCCC)c1ccccc1C(=O)O | 3%
Cc1noc(NS(=O)(=O)c2ccc(NC(=O)CCC3CCCC3)cc2)c1C | 8%
Nc1nonc1-c1nc2ccccc2n1Cc1ccc(F)cc1Cl | -4%
Cn1nnnc1Sc1ncnc2scc(-c3ccc(F)cc3)c12 | -21%
O=C(CN1C(=O)NC(Cc2ccccc2)C1=O)Nc1ccc(F)cc1 (stereo not drawn) | 7%

Remaining list, next part
SMILES | HSD17B inhib
CCN(CC)CCN(Cc1cc2cc3c(cc2[nH]c1=O)OCCO3)C(=O)NC1CCCCC1 | 25µM*
COc1cc2[nH]c(=S)n(CCN3CCOCC3)c(=O)c2cc1OC | -6%
CC(=O)NCCc1cc2ccc(C)c(C)c2[nH]c1=O | ?
CCSC1=N/C(=C\c2ccc3c(c2)OCO3)C(=O)S1 | -6%
O=C(Nc1ccc(Oc2ccccc2)cc1)C1CCN(c2ncccn2)CC1 | 1%
Nc1nc2ccccc2n1/N=C/c1ccc(-c2ccccc2)o1 | -29%
CCCC(C)C(=O)NCc1ccccc1OC (stereo not drawn) | 7%
Cc1ccc(NCC(O)C(O)C(O)CO)cc1C (stereo not drawn) | -14%
Cc1nnc(SCCn2c(N3CCN(C)CC3)nc3c2c(=O)[nH]c(=O)n3C)s1 | 8%
c1ccc(-c2cc3c(N4CCOCC4)ncnc3s2)cc1 | 32µM*

In another format: 19 of the compounds above
| compound | HSD17B inhib |
| --- | --- |
| CC1=C(C)C(=O)N(CCC(=O)O)C1=O | 12% |
| Cn1c(=O)c2c(nc(CN3CCOCC3)n2CC(O)CO)n(C)c1=O (stereo not drawn) | 6% |
| O=C(Cn1nnc(-c2ccc(Cl)cc2)n1)NCCC1=CCCCC1 | 5% |
| CCC(=O)c1cc2c(cc1NC(=O)c1ccc(C)cc1)OCCO2 | -2% |
| CCCCP(=O)(CCCC)c1ccccc1C(=O)O | 3% |
| Cc1noc(NS(=O)(=O)c2ccc(NC(=O)CCC3CCCC3)cc2)c1C | 8% |
| Nc1nonc1-c1nc2ccccc2n1Cc1ccc(F)cc1Cl | -4% |
| Cn1nnnc1Sc1ncnc2scc(-c3ccc(F)cc3)c12 | -21% |
| O=C(CN1C(=O)NC(Cc2ccccc2)C1=O)Nc1ccc(F)cc1 (stereo not drawn) | 7% |
| CCN(CC)CCN(Cc1cc2cc3c(cc2[nH]c1=O)OCCO3)C(=O)NC1CCCCC1 | 25µM* |
| COc1cc2[nH]c(=S)n(CCN3CCOCC3)c(=O)c2cc1OC | -6% |
| CC(=O)NCCc1cc2ccc(C)c(C)c2[nH]c1=O | ? |
| CCSC1=N/C(=C\c2ccc3c(c2)OCO3)C(=O)S1 | -6% |
| O=C(Nc1ccc(Oc2ccccc2)cc1)C1CCN(c2ncccn2)CC1 | 1% |
| Nc1nc2ccccc2n1/N=C/c1ccc(-c2ccccc2)o1 | -29% |
| CCCC(C)C(=O)NCc1ccccc1OC (stereo not drawn) | 7% |
| Cc1ccc(NCC(O)C(O)C(O)CO)cc1C (stereo not drawn) | -14% |
| Cc1nnc(SCCn2c(N3CCN(C)CC3)nc3c2c(=O)[nH]c(=O)n3C)s1 | 8% |
| c1ccc(-c2cc3c(N4CCOCC4)ncnc3s2)cc1 | 32µM* |

Next records follow.
SMILES | HSD17B inhib
COc1ccccc1N(CN1CCCC1=O)C(=O)c1c(F)cccc1Cl | 0%
Cc1ccc(-c2nn(C)c(=O)c3ccccc23)cc1CNC(=O)CN1CCOCC1 | 2%
CCOc1ccccc1N1CCN(Cc2cccc(OC)c2O)CC1 | -5%
CCC(c1nnnn1Cc1ccco1)N1CCN(C(=O)c2ccco2)CC1 (stereo not drawn) | 1%
Cc1ccc(-c2cc(C(=O)Nc3c(C#N)cnn3C)no2)cc1 | -1%
CCN(CC)c1ccc(NC(=O)c2ccco2)c(C)c1 | 1%
O=S(=O)(CCc1nc2ccccc2o1)c1ccc(Cl)cc1 | 1%
CCc1c(C)nc2ncnn2c1N1CCC(C(=O)NCc2cccc(OC)c2)CC1 | -5%
O=C(c1ccccc1)N1CCCCC(Sc2nnc3ccccn23)C1=O (stereo not drawn) | 96%[activator]
COc1ccccc1-c1coc2c(CN3CCN(C)CC3)c(O)ccc2c1=O | 32µM*
COc1ccc(C2C(C(=O)NCc3ccccn3)c3cc(OC)c(OC)cc3C(=O)N2C)cc1 (stereo not drawn) | 15%
COc1ccc(C2N=C(Nc3ccc(C)cc3)Nc3nc(C)cc(=O)n32)cc1 (stereo not drawn) | 4%
Cn1nnnc1SCC(=O)NCCc1ccc(Cl)cc1 | 2%
